Source: PubChem BioAssay
PGK inhibitor = blocks T. brucei phosphoglycerate kinase. 380,000 tested, 0.043% active. P07378. PGK/GAPDH coupled, Kinase-Glo luminescence, 60 min. Potency, µM (titrated, usually from 57.5 µM), inactives show at the highest dose activity change, negative = inhibition, actives largely listed as inhibitors. AID 602233; also: potency is read from the fitted curve at half-maximal effect; % is scaled to controls: 0 for no effect and ±100 for the full control effect; nearly all actives have a fitted effect of over 60% in size
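Recombinant glycosomal PGK reaction used 1,3-bisphosphoglycerate generated in-well by GAPDH (100nM final) in 100mM TEA pH 7.6, 5mM MgCl2, 0.01% Tween-20. After 60 minutes at room temperature, ATP was read by Kinase-Glo Plus luminescence end-point.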
Pin1 inhibitor = blocks the human prolyl isomerase Pin1 | Q13526 | 390,000 tested, 0.009% active | Potency, µM (series often up to 115 µM), without a hit: at the highest dose activity, negative = inhibition, usual class: inhibitors | Pin1 FP peptide displacement, HiFluor488, 10 min; active = well fitted inhibition curve with a large enough effect in the polarisation, with a control signal flat, not every such curve was filed as active; inconclusive = small, poorly fitted or top-dose-only effect, or effect the other way, or a change in a side signal; inactive = no such curve, though single readings can be large or run the other way; the % refers to the polarisation; also: potency is read from the fitted curve at half-maximal effect; % is scaled to controls: 0 for no effect and ±100 for the full control effect
G9a inh = inhibitors of human histone lysine methyltransferase G9a | Q96KQ7 | 350,000 tested, 8.8% active | Potency, µM (titrated, usually from 102 µM), inactives show at the top dose activity, negative = inhibition, actives largely listed as inhibitors | G9a H3K9 monomethylation, AlphaScreen, 2 h; also: potency is read from the fitted curve at half-maximal effect; % is scaled to controls: 0 for no effect and ±100 for the full control effect; nearly all actives have a fitted effect of over 75% in size
Target sequence (Q96KQ7 913-1193 limits assumed): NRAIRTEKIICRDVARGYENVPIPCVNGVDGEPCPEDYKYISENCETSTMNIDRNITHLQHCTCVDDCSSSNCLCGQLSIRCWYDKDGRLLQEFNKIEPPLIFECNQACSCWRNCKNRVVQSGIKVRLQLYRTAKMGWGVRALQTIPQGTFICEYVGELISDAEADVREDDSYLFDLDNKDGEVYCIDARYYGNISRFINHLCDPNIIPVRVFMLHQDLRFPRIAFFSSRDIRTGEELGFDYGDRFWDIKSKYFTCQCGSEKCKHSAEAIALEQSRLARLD
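Readings reflect AlphaScreen signal from monomethyl-H3K9 antibody detection. HMT at 20 nM; substrate b-H3K9 500 nM; cofactor SAM 20 uM; 2 h RT reaction; compounds tested as titrations in qHTS with 15 min preincubation.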
GLS inhibitor = glutaminase GLS (human) inhibition | GLS enzymatic activity, qHTS titration | O94925 | Potency, µM (doses to about 45.5 µM), for inactives: top-dose activity change, negative = inhibition, hits mostly inhibitors | 410,000 tested, 0.21% active; also: potency is read from the fitted curve at half-maximal effect; % is scaled to controls: 0 for no effect and ±100 for the full control effect
Target sequence (O94925 whole entry, looked up): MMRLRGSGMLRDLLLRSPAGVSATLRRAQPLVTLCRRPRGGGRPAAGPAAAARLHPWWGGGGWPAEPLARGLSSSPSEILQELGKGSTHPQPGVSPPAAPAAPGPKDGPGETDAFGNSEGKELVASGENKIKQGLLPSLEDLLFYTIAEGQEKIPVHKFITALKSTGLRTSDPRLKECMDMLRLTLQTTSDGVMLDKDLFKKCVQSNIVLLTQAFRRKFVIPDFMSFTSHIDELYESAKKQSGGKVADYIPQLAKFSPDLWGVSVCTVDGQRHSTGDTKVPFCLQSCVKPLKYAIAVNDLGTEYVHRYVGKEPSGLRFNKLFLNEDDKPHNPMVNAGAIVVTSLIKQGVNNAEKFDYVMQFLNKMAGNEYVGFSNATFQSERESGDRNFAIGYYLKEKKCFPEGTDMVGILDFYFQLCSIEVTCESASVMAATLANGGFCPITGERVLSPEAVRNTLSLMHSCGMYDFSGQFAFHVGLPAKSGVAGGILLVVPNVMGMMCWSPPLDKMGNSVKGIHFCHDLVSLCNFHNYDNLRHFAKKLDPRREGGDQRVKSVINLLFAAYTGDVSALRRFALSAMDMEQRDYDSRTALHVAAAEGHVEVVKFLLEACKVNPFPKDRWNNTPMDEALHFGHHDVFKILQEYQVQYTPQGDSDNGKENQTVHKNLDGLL
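hKGA in 45 mM KH2PO4 (pH 8.2), 0.02% Tween-20 with compound, then 1mM L-Glutamine (stock as added) plus glutamate oxidase/HRP/Amplex red coupling mix. Fluorescence read initially and after 30 min at RT; signal change reflects glutamate formation.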
PI4K2A inh = inhibitors of human PI4K2A | Q9BTU6 | purified PI4K2A, ADP-Glo luminescence, 1 h; stronger effect = lower value | activity change, negative = inhibition, % at 76.9 µM | 420,000 tested, 0.13% active; in the data active = activity change below about -50%; inconclusive = mostly about -30% to -49%;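 also: -100% = wells without enzyme as full effect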
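Compounds are screened against recombinant PI4K2A using PI as substrate and ATP, the latter dispensed at 300 microM. Reactions run one hour at ambient temperature before ADP-Glo detection; full inhibition defined by wells lacking enzyme.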
HP1b binding inh = inhibitors of HP1-beta chromodomain binding to methylated histone tails. AlphaScreen HP1-beta / biotin-H3K9me3 peptide binding. AID 540317. P83916. 390,000 tested, 0.56% active. Potency, µM (titrated, usually from 114 µM), without a hit: top-dose activity change, negative = inhibition, hits mostly inhibitors; also: potency is read from the fitted curve at half-maximal effect; nearly all actives have a fitted effect of over 70% in size; inactives centre near 23
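Compound inhibition of the preformed complex between 50 nM HP1-beta and 50 nM biotinylated H3K9me3 peptide was read by AlphaScreen. Buffer was PBS pH 7.4 with 0.01% Tween-20. Incubations ran 30 min at room temperature, with 10 ug/mL donor/acceptor beads.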
JMJD2A Tudor = blocks the human JMJD2A Tudor domain; AlphaScreen JMJD2A-Tudor / H3K4me3 peptide binding; 390,000 tested, 4.4% active; Potency, µM (titrated, usually from 114 µM), without a hit: at the highest dose activity change, negative = inhibition, usual class: inhibitors; O75164; also: potency is read from the fitted curve at half-maximal effect; % is scaled to controls: 0 for no effect and ±100 for the full control effect; nearly all actives have a fitted effect of over 50% in size
ERG Ets-DNA blk = inhibitors of human ERG Ets domain-DNA interaction; 370,000 tested, 0.028% active; fluorescence polarization, His-ERG Ets domain / labelled DNA; Potency, µM (doses to about 76.9 µM), for inactives: at the top dose FP activity, negative = inhibition, most hits filed as inhibitors; active = well fitted inhibition curve with a large enough effect in the polarisation, with a control signal flat; inconclusive = small, poorly fitted or top-dose-only effect, or effect the other way, or a change in a side signal; inactive = no such curve, though single readings can be large or run the other way; the % refers to the polarisation;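 also: polarization taken with two DNA probes labelled with fluorescein and Texas red; potency is read from the fitted curve at half-maximal effect; % of control where 0% means no effect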
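His-tagged ERG Ets domain (1 uM in the protein solution; 300mM KCl, 50mM Tris-HCl, 1mM EDTA, 1mM DTT, pH 7.5) received compound, then a probe mix of 5 nM fluorescein-DNA and 100nM Texas-615-DNA. Fluorescence polarization was read for both dyes.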
Numbers without * were called inactive; i = inactive; ? = inconclusive; . = not tested or not shown; [ ] = remark or other dose. Unless noted, calls follow the shape of the dose curve; as a rule, active = well fitted curve in the direction sought with a large enough effect; inconclusive = small, poorly fitted or top-dose-only effect, or another doubt; inactive = no such curve, though single readings can be large; an effect the other way counts as inactive or inconclusive.

SMILES | PGK inhibitor | Pin1 inhibitor | G9a inh | GLS inhibitor | PI4K2A inh | HP1b binding inh | JMJD2A Tudor | ERG Ets-DNA blk
C/C(=N\N=C1\NC(=O)C(CC(=O)Nc2ccc(Cl)cc2)S1)c1ccco1 (centres undefined) | 11% | -6% | 13%[59 µM] | 19% | -3 | -10% | ? | 3%
CCOC(=O)/C(=N\Nc1ccc(Br)cc1)N1CCN(c2ccccc2OC)CC1 | i | -1% | 16µM* | -19% | 1 | -8% | ? | 5%
CCOC(=O)c1sc(N2C(=O)C(O)=C(C(=O)c3ccco3)C2c2ccc(C)o2)nc1C (centres undefined) | -5% | 12% | 11µM* | ? | -18 | ? | ? | 6%
CCCCNC(=O)CSc1nc2nc(C)c(Cc3c(F)cccc3Cl)c(C)n2n1 | -2% | -3% | 0%[59 µM] | 1% | 0 | 5% | -14% | 2%
CS(=O)(=O)c1ccc(-c2nnc(NC(=O)C3=COCCO3)o2)cc1 | -9% | -5% | 16µM* | -1% | 0 | 23% | ? | 6%
Cc1ccc2nc(NC(=O)CSc3nccn3Cc3ccccc3)sc2c1 | 1% | 14% | ? | -10% | 8 | ? | ? | 0%
CCc1nc(NCC2CCCN2CC)c2nnn(Cc3ccccc3F)c2n1 (centres undefined) | -2% | 4% | ? | 5% | 0 | 26% | -15% | 4%
Cc1ccc(C(=O)N2CCN(S(=O)(=O)c3cc(Br)ccc3Br)CC2)o1 | -5% | -8% | ? | 0% | -2 | -5%[57 µM] | -22% | -6%
N#Cc1nc(COc2ccc(Cl)cc2)oc1N1CCN(Cc2ccccc2)CC1 | -1% | 10% | 16µM* | 8% | 9 | ? | ? | 0%
N#C/C(=C/c1ccc(O)cc1)c1nc(-c2ccc(-c3ccccc3)cc2)cs1 | -1% | 15% | -4%[59 µM] | -1% | 1 | -8% | -33% | 1%
CC1=Nc2cc(C(=O)NCCc3ccc(Cl)cc3)ccc2Sc2c(C)ccc(C)c21 | -5% | 11% | -26%[59 µM] | -12% | -9 | 44%[activator] | -15% | 3%
COc1ccc(C(=O)Nc2c(N)nc(SCC(=O)Nc3ccc(NC(C)=O)cc3)[nH]c2=O)cc1OC | -3% | ? | 6.3µM* | 17% | -19 | 42%[activator] | -17% | -4%
Cc1sc2nc3c(C(=O)N4CCCC4)cc(C(=O)c4ccccc4O)cn3c(=O)c2c1C | -8% | 3% | -129%[59 µM] | 6% | 5 | ? | ? | 12%
O=C(CCc1ccccc1)Nc1ncn[nH]1 | 6% | -1% | . | 18% | 12 | 26% | ? | 6%
Cc1cc(SCc2ccc([N+](=O)[O-])cc2)nc(=O)[nH]1 | 5% | 8% | -2%[59 µM] | -12% | -3 | 8% | -23% | 8%
COc1ccc(CNC(=O)C2CC(c3ccc(OC)cc3)=NO2)cc1 (centres undefined) | -2% | 1% | . | 1% | 7 | 31% | 2% | -5%
O=C(CSc1nc2sccc2c(=O)[nH]1)N1CCN(c2ccccc2)CC1 | 2% | ? | 45µM* | 19% | -5 | 6% | -36% | 12%
CCc1cc(C(=O)c2ccc(OC)cc2)c(NC(=O)CCC(=O)O)s1 | -1% | -3% | -10% | 7% | -6 | 13% | -25% | -5%
COc1ccc(Nc2cc(Cl)ccc2C(=O)O)cn1 | -10% | ? | 2.2µM* | 0% | -2 | 25% | -22% | -10%
CCOC(=O)N1CCC(NC(=O)C2CCCN(c3nc4ccccc4o3)C2)CC1 (centres undefined) | 1% | 1% | 36%[0.501 µM] | 1% | 1 | 18% | -7% | -1%
CSc1cccc(NC(=S)N(CCCN2CCC(C)CC2)Cc2cccs2)c1 | -8% | 0% | -13%[59 µM] | 0% | -2 | -22% | ? | 1%
CCOc1ccc(OCCOCCN2CCOCC2)cc1 | -6% | -8% | 2µM* | 1% | 4 | -54% | ? | 4%
Cc1ccc(Nc2nc(-c3sc(C)nc3C)cs2)cc1 | 7% | -4% | . | 5% | -3 | -14% | -35% | -1%
COc1cccc(-c2ccc(NC(=O)C3CCCN(Cc4nccn4C)C3)cc2)c1 (centres undefined) | -5% | 1% | 2%[12.7 µM] | -7% | 3 | -7% | ? | 5%
COc1ccc(Cl)cc1NC(=O)c1cc(S(=O)(=O)N(C)Cc2ccccc2)ccc1F | 8% | 0% | 9%[59 µM] | -12% | 3 | 27% | -10% | 10%
Cc1cccc(N2CCN(CC(O)COc3ccc(Cl)cc3)CC2)c1 (centres undefined) | -2% | -1% | -47% | 15% | -3 | -5% | -26% | 26%
Cc1cccc(OCCC(=O)Nc2ccc(N3CCOCC3)cc2N2CCOCC2)c1 | 6% | 1% | -2%[12.7 µM] | 2% | 4 | 33% | -25% | -3%
COc1cccc(Nc2ncnc3nc[nH]c23)c1 | -2% | -1% | 6%[59 µM] | -9% | -10 | 31% | -17% | 8%
COc1ccc(C(=O)Nc2nnc(S(=O)(=O)N3CCN(c4ccc(F)cc4)CC3)s2)cc1 | -7% | 0% | ? | -7% | 5 | -11% | -18% | -2%
O=C(CSc1ncnc2sc3c(c12)CCCC3)N1CCC(c2noc3ccc(F)cc23)CC1 | -5% | 1% | 5%[12.7 µM] | 0% | -1 | 3% | -28% | 1%
C=CCN1C(=O)c2ccc(C(=O)N3CCN(S(=O)(=O)c4cccc(Cl)c4)CC3)cc2C1=O | -2% | -3% | 18% | ? | 1 | 21% | -11% | 1%
COc1nc(Nc2ccc3c(c2)OCO3)nc(OC)n1 | -7% | -9% | -31% | -6% | -3 | 3% | -28% | -5%
Cn1c(Cc2csc(N)n2)nnc1SCC(=O)NCc1ccccc1 | i | -6% | 8%[12.7 µM] | -8% | -6 | 6% | ? | .
CCc1cc(C(=O)c2ccc(OC)cc2)c(NC(=O)COCC(=O)O)s1 | -4% | 1% | 4%[2.33 µM] | -5% | -2 | 40%[activator] | -27% | -7%
O=C(/C(=N\Nc1ccc([N+](=O)[O-])cc1)Sc1nnnn1-c1ccccc1)c1ccccc1 | i | 16% | ? | 25% | -10 | ? | ? | .
N#CCSc1nnc2sc3ccccc3n12 | i | 9% | -34% | 3% | 5 | 24% | -17% | -2%
CCc1cc(-c2nc(N)ncc2-c2ccc(Br)cc2)c(O)cc1OC | i | -7% | . | -12% | -2 | ? | ? | -5%
c1ccc(CSc2ccc3nnc(-c4ccccn4)n3n2)cc1 | i | -18% | 3% | 6% | 2 | 34% | ? | 3%
Cc1ccc(C(=O)NCCNc2ccc(Cl)cc2[N+](=O)[O-])o1 | -5% | -2% | ? | 0% | 0 | -17% | -33% | -10%
Cc1csc2nc(-c3ccc(NS(=O)(=O)c4cccc(F)c4)cc3)cn12 | -1% | 11% | ? | 21% | -3 | -6%[57 µM] | ? | -1%
O=C(COc1ccccc1[N+](=O)[O-])Nc1ccccc1N1CCCC1 | i | -1% | 45µM* | 3% | -2 | -6%[57 µM] | ? | -13%
COC(=O)c1cc(OC)c(OC)cc1NC(=S)N1CCN(C/C=C/c2ccccc2)CC1 | -15% | -5% | ? | 3% | 0 | -21% | ? | 16%
CN1CCN(c2nc(-c3ccccc3Cl)nc3ccccc23)CC1 | -6% | -3% | -15% | -6% | 8 | 23% | -7% | 16%
O=C(Cc1cccs1)Nc1cccc([N+](=O)[O-])c1 | i | 3% | -16%[59 µM] | 12% | -2 | -24% | -34% | 2%
Cc1ccc(-n2c3c(c(=O)[nH]c2=O)C(NC(=O)c2ccccc2C)(C(F)(F)F)C(=O)N3)cc1 (centres undefined) | -3% | -5% | -4%[59 µM] | 1% | 3 | 37% | 5% | -3%
COc1cc(C(=O)NCC(=O)N2CCN(S(=O)(=O)c3ccccc3)CC2)cc(OC)c1OC | 3% | -3% | -2% | 0% | 0 | 8% | -7% | 7%
Cn1cccc1Cc1nnc(SCC(=O)Nc2cccc(Cl)c2)n1-c1ccc(F)cc1 | -6% | 0% | 45µM* | 28% | -4 | -10% | ? | -5%
Cc1ccc(C2=NCCn3nc4cc(C(F)(F)F)ccc4c32)cc1 | -9% | -2% | ? | 7% | -3 | 34% | ? | -1%
CCOC(=O)c1c(NC(=O)c2ccccc2OCC)sc2c1CCC(CC)C2 (centres undefined) | 6% | -1% | 106%[activator][59 µM] | -1% | 2 | 85%[activator] | 87%[activator] | -1%
CCO/N=C/C1=C(O)C(C(=O)OC)C(C)(C)CC1=O (centres undefined) | 8% | 3% | . | 10% | 0 | 3% | ? | 2%
Clc1ccc(-c2ccc(CNCCSc3nnnn3-c3ccccc3)o2)cc1 | i | 16% | ? | -2% | 3 | -18% | -30% | 1%
CCOc1ccccc1C(=O)NC1(C(F)(F)F)C(=O)Nc2c1c(=O)[nH]c(=O)n2-c1ccccc1 (centres undefined) | 6% | 4% | -25%[59 µM] | 1% | -6 | 28% | -4% | -5%
COc1cc(Nc2ncc3c(n2)CCN(Cc2ccc(OC(C)C)c(OC)c2)C3)cc(OC)c1 | . | ? | ? | -1% | -2 | -8% | ? | 0%
COc1cccc(CNC(=O)C(Cc2ccccc2)n2cccc2)c1 (centres undefined) | -1% | 4% | ? | -2% | -1 | -19% | -31% | -5%
Cc1ccccc1N=C1c2cc([N+](=O)[O-])ccc2-c2ncccc21 | 3% | 0% | 7.9µM* | 12% | -5 | ? | ? | 3%
CCOC(=O)C1CCN(C(=O)Nc2ccc3nc(C)c(C)nc3c2)CC1 | 0% | 10% | -9%[59 µM] | 3% | -13 | 18% | -8% | 1%

Some of the compounds tested (hit frequency here may not be typical).
